Assay outcomes (PubChem)
UCH37 inh: human UCH37 deubiquitinating enzyme inhibition; 330,000 compounds, 0.33% hits; purified proteasome/UCH37, Ub-AMC cleavage fluorescence; AID 588478; inhibition, % (concentration not given with the values); Q9Y5K5;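 active = mean of two replicates above 20%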;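 note: 0% = compound-free wells with enzyme and 100% = wells lacking proteasome; stock transfer was 100 nL into about 20 µL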
Target sequence (Q9Y5K5 whole entry, looked up): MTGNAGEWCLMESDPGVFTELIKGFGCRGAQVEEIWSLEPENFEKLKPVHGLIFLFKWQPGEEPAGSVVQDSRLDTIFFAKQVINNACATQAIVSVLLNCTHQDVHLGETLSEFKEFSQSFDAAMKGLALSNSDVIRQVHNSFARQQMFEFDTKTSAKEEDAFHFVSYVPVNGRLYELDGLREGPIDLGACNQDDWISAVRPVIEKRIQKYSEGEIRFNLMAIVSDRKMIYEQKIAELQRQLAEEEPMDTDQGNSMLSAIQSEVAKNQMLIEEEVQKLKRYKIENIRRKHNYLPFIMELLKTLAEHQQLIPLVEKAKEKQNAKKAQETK
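Schedule: 30 min plus 25 min, room temperature / Material: human UCH37 within purified proteasomes / Technique: AMC fluorescence intensity at 355/460 nm / Buffer or medium: pH 7.4 Tris-HCl (50 mM) with ovalbumin, ATP-MgCl2, DTT / Controls: wells without proteasome as full block, compound-free enzyme plus substrate as uninhibited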
Vif TR-FRET: inhibitors of Vif binding to APOBEC3G peptide, primary screen, biochemical, TR-FRET, GST-Vif 1-94, biotin-A3G peptide, dose response retest (AID 1117319) | TR-FRET GST-Vif / biotin-A3G peptide binding; higher % means a stronger effect; test concentration not given here; strong numbers were not always called active | inhibition, %, or IC50 in µM where a hit was titrated | 260,000 compounds, 0.57% hits;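 active = above the screen mean plus three standard deviations and confirmed in dose response; inconclusive = results disagree or hit not tested in dose response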;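 note: Vif residues 1-94 fused to GST binding biotinylated APOBEC3G peptide 110-148; 0% = full assay without inhibitor and 100% = GST in place of GST-Vif; retest series ran down from 100 µM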
B2AR ag: agonists of human beta-2 adrenergic receptor inducing internalization | Am2.2-beta2AR cells, FAP receptor internalization, flow cytometry; reference of the scale not given here | response, % (no concentration beside the values) | 340,000 compounds, 0.43% hits;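 active = response above a set limit, near 3 SD of response in nonfluorescent compounds, cut at about 42% in these data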;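 note: stock transfer was 100 nL into about 11 µL; a reference agonist was the positive control; negative values mostly stem from fluorescent compounds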
HNF4A DNA FP: change in binding of human HNF4 alpha to DNA | P41235 | HNF4a-FITC DNA binding, fluorescence polarization, 1 h | activity change, % at 10 µM | 360,000 compounds, 0.3% hits | AID 1224865; in the data active = activity change above about 30%, passing the limit was not always enough;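 note: controls were the assay level and a saturating level of protein; the project sought stronger binding though the title names inhibitors; some compounds called inactive have numbers as strong as hits; positive values seem to mean higher polarization but the record does not say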
Target sequence (P41235 whole entry, looked up): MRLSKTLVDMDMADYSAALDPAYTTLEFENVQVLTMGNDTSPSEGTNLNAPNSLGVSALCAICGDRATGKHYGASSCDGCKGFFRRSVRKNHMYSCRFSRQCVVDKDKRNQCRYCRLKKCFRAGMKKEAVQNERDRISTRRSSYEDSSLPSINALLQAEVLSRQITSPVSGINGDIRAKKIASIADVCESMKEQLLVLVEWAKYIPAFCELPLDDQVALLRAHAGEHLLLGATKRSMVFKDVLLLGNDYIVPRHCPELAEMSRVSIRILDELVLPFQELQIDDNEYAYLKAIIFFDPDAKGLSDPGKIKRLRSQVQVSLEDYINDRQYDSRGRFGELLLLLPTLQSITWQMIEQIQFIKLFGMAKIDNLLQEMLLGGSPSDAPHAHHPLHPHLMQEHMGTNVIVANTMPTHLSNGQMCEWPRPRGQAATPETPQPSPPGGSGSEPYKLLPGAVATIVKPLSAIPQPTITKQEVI
Bfl-1 A1 inh: inhibitors of the anti-apoptotic protein A1, read as caspase activation. 330,000 compounds, 0.066% hits. AID 2462. caspase activation, % (concentration not given with the values). MEF A1-2A-BIM cells, Caspase-Glo 3/7 luminescence, 3 h; percent of clofoctol response, vehicle zero;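 active = over half of replicate activation scores above 10%, or exactly half above 10 with the replicate mean above 10; inconclusive = replicate mean below 10 yet half the replicates above 10; inactive = over half of replicates below 10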;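 note: wells of about 30 µL received 50 nL stock; many hits fall short of the cut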
LANA-H2A inh: blocks KSHV LANA binding to histone H2A/H2B | Q9QR71 | cell-free LANA-H2A/H2B peptide, fluorescence polarization | inhibition, % (test concentration not listed) | 320,000 compounds, 0.6% hits | AID 2629; in the data active = inhibition mostly above about 10%, no sharp cut-off; inactive = mostly below about 6.7%;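 note: stock transfer was 7.5 nL into about 10 µL; 0% = median of vehicle wells and 100% = median of positive control wells; one replicate is shown; the record names a cut of 25% in any replicate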
Ecoli growth: E. coli growth inhibition; Escherichia coli growth, OD600, 23 h; hits give low values; 330,000 compounds, 0.21% hits; AID 1053175; OD600 absorbance (no concentration beside the values);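 active = OD600 absorbance below the run mean of sample wells minus 3.6 SD, in any replicate, cut at about 0.56 in these data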;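 note: stock transfer was 300 nL into about 60 µL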
Active calls of the source: *; ? = inconclusive; . = no result given; & = joins results of further samples.

SMILES	UCH37 inh	Vif TR-FRET	B2AR ag	HNF4A DNA FP	Bfl-1 A1 inh	LANA-H2A inh	Ecoli growth
COc1cccc(C(C(=O)NC2CCCCC2)N(C(=O)Cc2cccs2)c2ccc(-n3cnnn3)c(OC)c2)c1 (stereo not drawn)	1.9	29%	-14	-1.5	0.8	-0.8	0.75
CCCn1c(N)c(C(=O)CSc2nnc(-c3cccs3)n2C2CC2)c(=O)[nH]c1=O	0.5	-3%	-1	-1.8	.	.	0.67
O=C(c1ccc(-c2ccccc2)cc1)N1CCN(c2ncccn2)CC1	2.8	8%	-1	-1.0	-0.2	-0.2	0.74
N#C/C(=C\c1c(Cl)cccc1Cl)c1nn(-c2ccccc2)c(-n2cccc2)c1C#N	3.2	4%	9	0.8	-1.2	1.1	0.69
O=C(Nc1ccc(F)cc1)c1ccc(NC(=O)C2CCCO2)cc1 (stereo not drawn)	6.7	.	8	-0.7	-6.4	-8.5	0.67
CCOC(=O)/C(C#N)=C/c1c(N2CCN(C)CC2)nc2c(C)cccn2c1=O	4.9	0%	-2	0.0	2.2	5.7	0.67
Cc1ccccc1NC(=O)CN1CCC(NC(=O)Nc2ccccc2)CC1	1.0	2%	2	-2.5	0.7	0.0	0.63
Cc1ccc(S(=O)(=O)Nc2cccc(-c3ccc(N4CCCCCC4)nn3)c2)c(C)c1	2.8	.	20	-4.9	0.3	-4.6	0.69
Cc1cccc(NS(=O)(=O)c2ccc(-c3cnc(C4CC4)o3)cc2)c1	2.4	.	-7	7.7	-0.1	-1.3	0.66
COc1ccccc1N=Cc1nc(-c2ccccc2)oc1OC(C)=O	1.3	17%	7	-0.7	0.1	0.2	0.67
CN(Cc1ccco1)S(=O)(=O)c1ccc(CN2C(=O)c3cccnc3C2=O)s1	2.0	3%	-1	2.7	-2.5	3.7	0.72
CN(C(=S)Oc1ccc(C(=O)Nc2ccccc2)cc1)c1ccccc1	3.2	-5%	1	1.8	-0.1	-6.7	0.7
COC(=O)Nc1ccc(S(=O)(=O)Nc2ccccc2F)cc1	1.3	0%	-7	-0.1	-1.1	2.9	0.71
COC(=O)c1cc(-c2ccc(S(=O)(=O)N3CCCC(C)C3)cc2)c(C(F)(F)F)s1 (stereo not drawn)	0.8	.	8	-0.9	0.4	3.9	0.68
COc1ccc(S(=O)(=O)NCC2CCCN(C(=O)C3CCCC3)C2)cc1 (stereo not drawn)	2.9	15%	-15	-4.8	1.3	-3.5	0.69
CCOC(=O)C1(Cc2ccccc2)CCN(CC2CC=CCC2)CC1 (stereo not drawn)	2.6	5%	0	-0.3	-0.5	-0.8	0.67
Cc1cc(=O)oc2c(C)c3occc3cc12	-38	.	4	-1.6	-0.7	-0.6	0.71
Cc1ccc2c(CC(=O)NCc3cccs3)coc2c1	1.0	1%	-1	1.5	0.0	1.1	0.59
CC(C)C[C@@H]1CN=C(N)N1C[C@@H]1CCCN1C[C@H](C)N1C[C@@H](Cc2ccccc2)N(CCCC2CCCC2)C1=N	.	.	-1	1.5	-1.4	-2.6	.
Cc1cc2c(cc1S(=O)(=O)NCCc1ccccc1)NC(=O)CO2	0.0	-13%	-1	-1.2	-0.7	.	0.65
CCN(CCO)Cc1cc(=O)oc2c(C)c(C)ccc12	2.4	7%	3	0.5	-0.2	-1.0	0.67
CCC(C)NS(=O)(=O)c1ccc(OC)c(Cl)c1Cl (stereo not drawn)	3.2	0%	-6	-0.1	-0.2	2.5	0.72
CCN1CCN(C(C)CCc2ccccc2)CC1 (stereo not drawn)	-0.5	.	-3	0.9	0.1	-0.2	0.65
CCCCCCCCC(=O)N/N=C/c1ccccn1	.	-2%	-6	-3.4	0.3	-0.8	.
CCOC(=O)C1(CCCc2ccccc2)CCN(C(=O)Cn2nc(C)nc2C)CC1	2.4	-2%	0	1.7	1.8	-1.4	0.72
Cc1nc(NC(=O)/C=C/c2ccccc2)sc1C(=O)NCCO	4.5	-5%	-15	2.3	1.7	0.3	0.67
C[C@H](CO)N1C[C@H](C)[C@@H](CN(C)C(=O)NC2CCCCC2)Oc2c(NC(=O)C3CC3)cccc2C1=O	2.5	.	-3	1.1	0.7	-1.8	0.73
Cc1ccc(C(=O)NC(O)C(Cl)Cl)cc1 (stereo not drawn)	-8.8	29%	1	-1.2	-0.1	-0.2	0.68
Cc1ccc(S(=O)(=O)N2c3ccccc3OCC2C(C)(C)C)cc1 (stereo not drawn)	2.1	2%	10	-0.2	0.5	-3.8	0.67
O=C(COc1ccc2ccccc2c1)N1CCN(c2ccccc2O)CC1	1.6	13%	-4	-1.2	0.6	-5.4	0.72

Filtered by structure: the compounds so far with a furan ring, fused or not (3)
SMILES	UCH37 inh	Vif TR-FRET	B2AR ag	HNF4A DNA FP	Bfl-1 A1 inh	LANA-H2A inh	Ecoli growth
CN(Cc1ccco1)S(=O)(=O)c1ccc(CN2C(=O)c3cccnc3C2=O)s1	2.0	3%	-1	2.7	-2.5	3.7	0.72
Cc1cc(=O)oc2c(C)c3occc3cc12	-38	.	4	-1.6	-0.7	-0.6	0.71
Cc1ccc2c(CC(=O)NCc3cccs3)coc2c1	1.0	1%	-1	1.5	0.0	1.1	0.59

Following part
SMILES	UCH37 inh	Vif TR-FRET	B2AR ag	HNF4A DNA FP	Bfl-1 A1 inh	LANA-H2A inh	Ecoli growth
COc1cc(/C=C2\SC(=S)N(Nc3ccccc3)C2=O)cc(OC)c1OC	5.3	5%	3	4.2	0.3	-1.4	0.83
Cc1cc(C)n(-c2nc3nonc3nc2Nc2cccc(C)c2C)n1	3.9	?	-5	-14	-1.4	7.3	0.75
O=c1c2ccccc2nnn1CSc1nnc(-c2ccco2)o1	0.5	-5%	-22	-0.3	0.8	-4.8	0.64
COCCOC(=O)C1=C(C)OC(N)=C(C#N)C1c1ccco1 (stereo not drawn)	6.8	18%	-8	2.2	0.9	-3.2	0.69
CCC(CC)C(=O)Nc1cccc(C(=O)Nc2ccc(S(=O)(=O)Nc3ccc(C)cc3)cc2)c1	1.0	8%	12	1.4	-0.1	-4.2	0.73
O=C(COC(=O)/C=C/c1cccs1)Nc1ccccc1Cl	0.0	3%	7	4.4	0.3	-0.4	0.68
COc1cc(/C=N/Nc2nc(=O)[nH]nc2C)cc(OC)c1O	.	10%	-4	-4.3	1.1	-3.0	.
CN(Cc1ccccc1)C(=O)C1CCCN(Cc2cccc(Cl)c2)C1 (stereo not drawn)	0.7	-1%	4	-0.7&-1.1	-0.1	1.6	0.69
c1ccc(OCCSc2nc3ccccc3[nH]2)cc1	-0.3	4%	-6	-1.1	2.0	5.5	0.69
CC(=O)Nc1ccc(S(=O)(=O)Nc2ccc3c(c2)n(C)c(=O)n3C)c(C)c1	0.4	.	8	2.6	-0.7	5.0	0.68
C=C(CC[C@@H](O)C(C)(C)O)[C@H]1CC[C@]2(C)[C@@H]1CCC1[C@@]3(C)CC[C@H](O)C(C)(C)C3CC[C@]12C (stereo partly drawn)	.	.	16	-1.5	1.9	6.2	.
COCCNS(=O)(=O)c1ccc(OCC(=O)N2CCc3ccccc3C2)c(Cl)c1	1.1	5%	5	4.3	0.1	-6.1	0.66
CC(C)NC(=O)N(C)C[C@H]1Oc2c(NS(=O)(=O)c3ccc(F)cc3)cccc2C(=O)N([C@H](C)CO)C[C@@H]1C	1.9	.	-2	1.1	-0.3	-0.3	.
COc1cc2c(cc1OC)C(c1cc([N+](=O)[O-])ccc1O)NCC2 (stereo not drawn)	13	-4%	6	4.9	-0.3	-2.1	0.68
O=C(CNS(=O)(=O)c1ccc([N+](=O)[O-])cc1)N/N=C\c1ccc(O)cc1	.	2%	3	-1.2	1.7	2.4	.
CC(C)N(C(=O)COC(=O)[C@@H]1CC(O)CN1S(=O)(=O)c1ccccc1[N+](=O)[O-])C(C)C (stereo partly drawn)	0.3	.	1	3.6	-0.1	-0.5	0.7
CCC(C)N(C(=O)CSc1nnc2ccccn12)C1CCS(=O)(=O)C1 (stereo not drawn)	2.8	4%	4	-2.7	.	.	0.65
CCOC(=O)C(C)N1CC(=O)N(c2ccccc2)C1=O (stereo not drawn)	.	-4%	-3	4.3	1.2	1.3	.
Cc1nc(CN2CCN(C(=O)NC3(c4ccccc4)CC3)CC2)cs1	3.4	5%	-2	0.2	0.6	-1.0	0.76
CCN(C1CCCCC1)S(=O)(=O)c1ccc(S(=O)(=O)N(CC(=O)Nc2ccccc2)C2CC2)cc1	5.3	0%	-6	1.5	0.0	1.6	0.67
COc1ccc(C2Nc3ccccc3C(=O)N2O)cc1CN1CCOCC1 (stereo not drawn)	0.5	-5%	-6	1.5	0.6	1.6	0.75
O=C(O)CN1C(=O)CSc2ccccc21	4.2	>100µM*	-3	3.3	0.1	1.4	0.73
CCn1c(CNC(=O)C2CCCCC2)cc2cc(C)ccc21	2.8	.	-1	5.2	0.1	6.4	0.72
C=Cn1ccnc1P(=S)(c1ccc2c(c1)c1ccccc1n2CC)c1nccn1C=C	0.5	-5%	16	1.6	0.2	2.1	0.71
O=C(CN1CCN(S(=O)(=O)c2cccs2)CC1)N1CCCCC1	6.0	5%	-6	0.7	.	.	0.7
COc1c(Br)cc(/C=N/n2c(-c3ccccc3)n[nH]c2=S)c(O)c1Br	.	.	10	1.1	0.5	-1.3	.
Cc1ccc(C)c(OCCC(=O)NNC(=O)Cn2nc(C)cc2C)c1	2.5	5%	1	-3.9	-1.0	0.8	0.69
C/C(=N\NC(=O)c1cc(O)ccc1O)c1cccc(NC(=O)c2cccc(Cl)c2)c1	.	12%	5	-1.4	1.2	-0.1	.
CC1(C)Cc2cccc(OCC(=O)Nc3nccs3)c2O1	-0.8	-5%	10	0.2	0.0	-3.6	0.72
Cc1cc(C)n(-c2ccc(C(=O)NC3CCCCC3)cc2)n1	0.0	-8%	2	1.2	-0.1	3.6	0.69
CCOC(=O)C1=C(C)N=c2s/c(=C\c3ccc(OCC(=O)O)cc3)c(=O)n2C1c1ccc(OC(C)C)cc1 (stereo not drawn)	.	-12%	-2	-0.2	0.5	-1.8	.
COc1cc(OC)cc(C(=O)Nc2cccc3cccnc23)c1	4.9	.	-4	2.0	-0.8	5.1	0.68
CN(Cc1cccc(Cl)c1Cl)C(=O)c1cc(S(=O)(=O)N2CCOCC2)ccc1F	1.2	-2%	5	3.2	-0.8	-3.1	0.68
COc1ccccc1N1CCN(C(=O)COc2ccc(S(=O)(=O)NC(C)(C)C)cc2)CC1	3.6	14%	.	.	0.8	-1.5	0.66
Cc1ccc(C)c(-n2c(Cc3cc(=O)[nH]c(=O)[nH]3)nnc2SCC(=O)NCc2ccco2)c1	0.4	.	3	0.6	0.5	5.4	0.68
COc1ccc(-c2c(-c3cc(OC)cc(OC)c3)n(C)c3ccc(-c4cnc(N)nc4)cc23)cc1	-7.7	.	7	1.2	-0.2	0.3	0.71
CCc1cc(C=C(Cl)Cl)oc(=O)c1C	7.7	-4%	-5	5.2	0.1	-0.5	0.68
CC(=O)CC(=O)Nc1ccn(-c2ccccc2)n1	-1.6	-2%	3	-1.2	-0.2	-2.8	0.69
COc1cc(NC(=S)N2CCN(Cc3ccccc3)CC2)cc(OC)c1	2.7	.	-5	-0.9	-0.9	0.3	0.7
O=C(c1ccc(S(=O)(=O)N2CCCCC2)cc1)N1CCN(c2ccccc2F)CC1	1.1	-2%	-11	2.5	-0.5	1.8	0.7
COc1ccc(-c2cc(C(=O)N3CCOCC3)no2)cc1	1.2	.	-2	2.7	0.5	2.6	0.68
COc1cccc(NC(=O)C2CCC(CNS(=O)(=O)c3ccc4c(c3)CC(C)N4C(C)=O)CC2)c1 (stereo not drawn)	-0.1	0%	7	4.2	0.2	2.8	0.59
